From PubChem
TRPML1 agonist = activates the human TRPML1 channel; Q9GZU1; TRPML1-expressing cells, Ca2+ dye fluorescence, FDSS; host cell line not named in the record; reference of the full effect not given here; activation, % (test concentration not listed); hit rate 0.12% among 410,000; in the data active = activation above about 50%; inconclusive = about 30% to 50%; inactive = below about 30%; note: 0% is about no effect; the text of the record puts the active cut at 80%
Target sequence (Q9GZU1 whole entry, looked up): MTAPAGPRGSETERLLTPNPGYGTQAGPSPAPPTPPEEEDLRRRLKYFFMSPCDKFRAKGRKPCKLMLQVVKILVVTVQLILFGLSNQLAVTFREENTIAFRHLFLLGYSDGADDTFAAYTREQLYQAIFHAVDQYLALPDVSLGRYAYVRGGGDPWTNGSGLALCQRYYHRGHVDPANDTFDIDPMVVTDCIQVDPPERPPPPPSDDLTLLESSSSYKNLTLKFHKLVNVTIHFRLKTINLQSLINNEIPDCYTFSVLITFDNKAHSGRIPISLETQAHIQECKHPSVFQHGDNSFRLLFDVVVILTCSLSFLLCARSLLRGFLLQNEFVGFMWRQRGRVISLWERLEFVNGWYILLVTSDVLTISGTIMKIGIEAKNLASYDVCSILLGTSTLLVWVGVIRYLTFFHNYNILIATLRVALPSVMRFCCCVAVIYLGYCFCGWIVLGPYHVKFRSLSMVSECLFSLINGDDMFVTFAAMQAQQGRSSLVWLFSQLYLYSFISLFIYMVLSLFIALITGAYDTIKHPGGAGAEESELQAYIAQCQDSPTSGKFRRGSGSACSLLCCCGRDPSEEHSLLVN
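Agonist activity was taken from a 110 s kinetic Ca2+ dye read on the FDSS after pinning compounds onto TRPML1-DL cells. The cells were seeded at 1,500/well with Tet inducer, incubated about 16 h, then dye-loaded at room temperature.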
gsp ag = activates gsp, the McCune-Albright syndrome mutation | Potency, µM (highest dose often 76.9 µM), for the others: at the highest dose activation (cAMP increase), usual class: activators | hit rate 0.13% among 340,000 | gsp mutant cells, cAMP HTRF, 30 min; control for the full effect not named in the record; active = well fitted activation curve with a large enough effect; inconclusive = small, poorly fitted or top-dose-only effect, or another doubt; inactive = no such curve, though single readings can be large or run the other way; cell line not stated here;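 note: phosphodiesterase inhibitor Ro 20-1724 added with compounds to block cAMP breakdown; potency is the fitted concentration of half-maximal effect; nearly all actives have a fitted effect of over 60% in size; about a fifth of the inactives were tested at one dose only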
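Cells stably selected in G418 were plated at 2000/well, grown 16-24 hr, then given compounds in DMSO with the PDE inhibitor […] (300 uM solution added) for 30 min at 37C; cAMP was read by HTRF.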
TRPML1 inh = blocks the human TRPML1 channel; Q9GZU1; AID 624415; TRPML1-inducible cells, Ca2+ dye fluorescence, FDSS; active compounds read low; inhibition of EC80 agonist-evoked calcium signal; hit rate 0.02% among 390,000; activity change, negative = inhibition, % (test concentration not listed); in the data active means activity change below about -50%; inconclusive means about -30% to -50%; inactive means above about -30%;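 note: stimulus is agonist 54-4 at its EC80 concentration; % is set by controls: 0 for no effect and ±100 for the full control effect; compound concentration not given in the record; the text of the record puts the active cut at -80%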
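Calcium fluorescence in TRPML1-DL cells induced overnight with Tet: a 110 s read after compound pin addition, then a 110 s antagonist read after challenge with 54-4 at 4 uM final (EC80).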
ClpP mod = qHTS Assay for Activators of ClpP. ATP-dependent Clp protease proteolytic subunit (Bacillus subtilis (strain 168)), P80244. purified B. subtilis ClpP, FRET peptide cleavage, 20 min. AID 651965, 2013. hit rate 1.9% among 340,000. Potency, µM (doses to about 57.5 µM), without a hit: at the top dose activity change, negative = active; active = well fitted falling curve with a large enough effect; inconclusive = small, poorly fitted or top-dose-only effect; inactive = no such curve, though single readings can be large or run the other way; note: potency is the fitted concentration of half-maximal effect; the source files actives as falling curves though it sought activators and does not explain the sign; nearly all actives have a fitted effect of over 65% in size; many hits overshoot -100%
Target sequence (P80244 whole entry, looked up): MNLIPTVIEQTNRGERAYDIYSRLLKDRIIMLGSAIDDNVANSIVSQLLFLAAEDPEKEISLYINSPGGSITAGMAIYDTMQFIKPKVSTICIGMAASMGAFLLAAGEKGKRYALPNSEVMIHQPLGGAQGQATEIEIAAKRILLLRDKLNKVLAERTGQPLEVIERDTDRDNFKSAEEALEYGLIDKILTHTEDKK
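Purified B. subtilis ClpP, 10 microg/mL final in Tris/HCl pH8 with KCl, BSA, glycerol and Tween-20, cleaved an Abz/nitrotyrosine-quenched decapeptide. Fluorescence (ex 320, em 430) was read at 0 and 20 min at room temperature. Delta was normalized to 5.8 microM ADEP and DMSO/no-enzyme controls.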
Menin MLL FP FL = displaces fluorescein MLL peptide from human menin; Fluorescence polarization, fluorescein-MLL peptide displacement from menin; FP activity change, % at 61.4 µM; 290,000 tested, under 10 active; inconclusive = falling polarisation curve, or a change in total fluorescence; inactive = total fluorescence flat and polarisation flat or rising; no compound was filed as active; the % refers to the polarisation; negative = inhibition;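 note: % of control where 0% means no effect; inhibitors lower the polarisation; unlabelled MLL peptide was the positive control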
gsp antag = gsp mutant antagonism; gsp-mutant cells, cAMP HTRF, 30 min; control for the full effect not named in the record; Potency, µM (titrated, usually from 76.9 µM), for the others: at the highest dose activity change, negative = inhibition, actives largely listed as inhibitors; hit rate 0.4% among 340,000; active = falling curve of any shape with a large fitted effect; inconclusive = falling curve, mostly with a smaller effect; inactive = flat or rising curve; cell line not stated here;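 note: intracellular cAMP measured with PDE inhibitor Ro 20-1724 present during compound exposure; potency is the fitted concentration of half-maximal effect; % is set by controls: 0 for no effect and ±100 for the full control effect; nearly all actives have a fitted effect of over 65% in size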
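Cells, 2000/well, grown 16–24 h in DMEM 10% FBS with 0.5 mg/ml G418, then compounds plus […] (300 uM addition stock), 30 min at 37C. cAMP read by HTRF (cAMP-d2 and anti-cAMP antibody-K in lysis buffer) after 30 min RT.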
The depositor's hits bear a star; & = joins results of further samples; [ ] = another dose, or the depositor's remark.

Screening CCOC(=O)C1CCCN(c2c(N3CCN(C)CC3)c(=O)c2=O)C1 (configuration not stated) returned TRPML1 agonist -0.6, gsp ag 3.6%, TRPML1 inh 1.2, ClpP mod -5.7%, Menin MLL FP FL 0.9 and gsp antag -9.8%.
For CCN(Cc1ccc(Br)s1)C(=O)CSc1nnc(C2CC2)n1C1CC1 the results were TRPML1 agonist -0.1, gsp ag -28.5%, TRPML1 inh 2.1 and ClpP mod -22.6%.
For Cn1c(=O)c2c(ncn2CCNC2=NCCCCC2)n(C)c1=O the results were TRPML1 agonist 0.4, gsp ag 4.4%[15.4 µM], TRPML1 inh -9.0, Menin MLL FP FL -9.3 and gsp antag 15.0%.
Screening CC(=O)c1ccccc1NC(=O)COC(=O)/C(=C/c1ccccc1)n1nnnc1C returned TRPML1 agonist 0.3, gsp ag 2.9%[15.4 µM], TRPML1 inh 4.7, ClpP mod -9.0% and gsp antag 4.6%.
Oc1ccc(Br)cc1/C=N/NC(=S)NCCc1ccccc1 was read as TRPML1 agonist 5.2, gsp ag -15.6%, TRPML1 inh 18.0, Menin MLL FP FL 0.4 and gsp antag -4.6%.
For CC(C)CN(CCCNC(=O)CN1N=C(c2ccc(Cl)cc2)CCC1=O)CC(C)C the results were TRPML1 agonist -0.5, gsp ag 17.8%, TRPML1 inh -4.8, ClpP mod 0.8%&1.7%, Menin MLL FP FL -4.8 and gsp antag 10.2%.
For COC(=O)c1sccc1NC(=O)c1ccc(C)s1 the results were TRPML1 agonist 2.4, gsp ag -4.7%, TRPML1 inh 6.3, ClpP mod -6.5%, Menin MLL FP FL 0.8 and gsp antag -1.8%.
Screening Cc1cc(/C=C(\C#N)C(=O)NC2CC2)c(C)[nH]1 returned TRPML1 agonist 1.5, gsp ag -13.4%, TRPML1 inh 4.4, ClpP mod 2.1%, Menin MLL FP FL 3.6 and gsp antag 11.0%.
For Fc1ccc(Oc2cc(N3CCOCC3)nc(-c3ccccc3)n2)c(F)c1 the results were TRPML1 agonist -0.2, gsp ag 0.3%, TRPML1 inh 13.6, ClpP mod -20.1%, Menin MLL FP FL 5.7 and gsp antag 0.0%.
`O=C(NCCN1CCN(c2cccc(Cl)c2)CC1)C1COc2ccccc2C1` (configuration not stated) gave TRPML1 agonist 0.4, TRPML1 inh -7.1 and ClpP mod -0.9%.
Screening Cc1cc(C)cc(Nc2ncnc3sc4c(c23)CCCC4)c1 returned TRPML1 agonist 0.6, TRPML1 inh 12.9 and ClpP mod -9.4%.
For Cc1cccc(NC(=O)c2cccnc2Oc2ccccc2)c1C(=O)O the results were TRPML1 agonist -0.4, gsp ag 8.0%[15.4 µM], TRPML1 inh 11.0, Menin MLL FP FL -7.3 and gsp antag -8.6%.
COc1ccccc1CNC(=O)CC(C)C was read as TRPML1 agonist 1.2, gsp ag 4.8%, TRPML1 inh 24.2, ClpP mod -3.2%, Menin MLL FP FL -1.7 and gsp antag 19.7%.
CCCCc1ccc(NC(=O)CSc2nc(=O)n(CCN(C)C)c3c2CCC3)cc1 was read as TRPML1 agonist 0.9, gsp ag 15.7%[15.4 µM], TRPML1 inh 2.3, ClpP mod -5.5% and gsp antag -8.2%.
`COc1cccc(NC(=O)C2C3C=CC4(O3)C2C(=O)N(CCN2CCCCC2)C4C(=O)NC2CCCCC2C)c1` (configuration not stated) gave TRPML1 agonist 0.6, gsp ag 9.3%[15.4 µM], TRPML1 inh -5.7, Menin MLL FP FL -8.0 and gsp antag 5.7%.
`CCc1ccc(NC(=O)Cn2c(=O)n(CCc3ccccc3)c(=O)c3sc4ccccc4c32)cc1` gave TRPML1 agonist -0.1, TRPML1 inh -10.3 and ClpP mod -14.2%.
Screening CN1C(=O)c2ccc(C(=O)Nc3ccc(Br)cn3)cc2C1=O returned TRPML1 agonist -0.4, gsp ag -22.3%, TRPML1 inh -7.4, ClpP mod -1.6%, Menin MLL FP FL 1.8 and gsp antag 15.9%.
Screening CCn1nc(-c2ccccc2)c(-c2ccccc2)c(C(=O)OCCOC)c1=O returned TRPML1 agonist 2.8, TRPML1 inh inconclusive and ClpP mod -2.0%.
For CCS(=O)(=O)N1CCc2cc(C(=O)NCCc3ccccc3)ccc21 the results were TRPML1 agonist -0.4, TRPML1 inh 17.3 and ClpP mod -3.5%.
Screening O=C(O)Cc1ccc(NC(=O)Nc2ccc(Br)cc2)cc1 returned TRPML1 agonist -0.8, gsp ag -14.4%[15.4 µM], TRPML1 inh 39.9, Menin MLL FP FL 1.8 and gsp antag 6.2%.

A run of entries from the list above:
Screening CCOC(=O)C1CCCN(c2c(N3CCN(C)CC3)c(=O)c2=O)C1 (configuration not stated) returned TRPML1 agonist -0.6, gsp ag 3.6%, TRPML1 inh 1.2, ClpP mod -5.7%, Menin MLL FP FL 0.9 and gsp antag -9.8%.
For CCN(Cc1ccc(Br)s1)C(=O)CSc1nnc(C2CC2)n1C1CC1 the results were TRPML1 agonist -0.1, gsp ag -28.5%, TRPML1 inh 2.1 and ClpP mod -22.6%.

More entries.
For COc1ccc(C(=O)N2CCC(n3nccc3NC(=O)C3CC3)CC2)cc1F the results were TRPML1 agonist -0.3, gsp ag 9.4%, TRPML1 inh 0.3, ClpP mod 2.2%, Menin MLL FP FL 0.7 and gsp antag 15.6%.
`O=C(Cn1c(=O)n(-c2ccccc2)c(=O)c2ccc(C(=O)NCc3ccc4c(c3)OCO4)cc21)Nc1ccc(F)c(Cl)c1` gave TRPML1 agonist 1.9, TRPML1 inh -2.0 and ClpP mod -4.8%.
COc1ccc(C2C(C#N)=C(C)NC3=C2C(=O)CC(C)(C)C3)cc1 (configuration not stated) was read as TRPML1 agonist -0.9, gsp ag 7.5%, TRPML1 inh 1.1, ClpP mod 28.2µM*, Menin MLL FP FL 2.2 and gsp antag 7.1%.
Cc1c(C(=O)OCC(=O)NC2CC2)oc2ccc(Br)cc12 was read as TRPML1 agonist -0.7, gsp ag 9.4%[15.4 µM], TRPML1 inh 4.4 and gsp antag -3.9%.
For COC(C[C@H]1O[C@@H]1[C@@H](O)[C@H](C)OCc1ccccc1)OC the results were TRPML1 agonist 0.0, TRPML1 inh 32.2, ClpP mod 0.4%, Menin MLL FP FL -2.0 and gsp antag 6.5%.
For Cc1ccc(-c2nc(CSCC(=O)N3CCCC3)c(C)o2)cc1 the results were TRPML1 agonist 0.9, gsp ag 23.1%, TRPML1 inh 3.2, ClpP mod -28.1%, Menin MLL FP FL -0.1 and gsp antag -16.2%.
`CCC(c1nnnn1Cc1ccc(OC)cc1)N1CCN(C(=O)c2ccco2)CC1` (configuration not stated) gave TRPML1 agonist -0.9, gsp ag 18.6%[15.4 µM], TRPML1 inh -2.8, ClpP mod -4.3%, Menin MLL FP FL 0.3 and gsp antag -7.2%.
COc1cccc(OC)c1NC(=O)C1CCCN1C(=O)NCc1ccccc1 (configuration not stated) was read as TRPML1 agonist 0.9, gsp ag -18.5%, TRPML1 inh -20.6, ClpP mod 2.7%, Menin MLL FP FL 1.4 and gsp antag 4.9%.
`NC(=O)c1ccsc1NC(=O)COC(=O)c1ccc(Cl)c(N)c1` gave TRPML1 agonist 2.0, gsp ag -17.6%, TRPML1 inh -1.9, ClpP mod -18.0% and gsp antag -12.2%.
COC(=O)[C@@H]1C[C@@]2(O)[C@@H](O)[C@@H](O)[C@@H](O)C[C@H]2N1Cc1ccc(C(F)(F)F)cc1 was read as TRPML1 agonist -0.4, TRPML1 inh 6.3, ClpP mod 0.7%, Menin MLL FP FL 2.4&1.1 and gsp antag 7.3%.
`O=C(O)c1ccc(-c2nnn(Cc3ccccc3F)n2)cc1` gave TRPML1 agonist 0.5, gsp ag 16.0%, TRPML1 inh 24.9, ClpP mod -0.9%, Menin MLL FP FL -8.6 and gsp antag -9.7%.
For COc1ccc2c(c1)C(=O)N(c1ccc(C)cc1C)C(=O)C2 the results were TRPML1 agonist -0.5, gsp ag -8.4%, TRPML1 inh 8.4, Menin MLL FP FL inconclusive and gsp antag 2.2%.
`CCC(NS(=O)(=O)c1ccc(C)cc1)C(=O)N1CCN(c2ccccn2)CC1` (configuration not stated) gave TRPML1 agonist 1.0, gsp ag 5.3%, TRPML1 inh 13.5, ClpP mod -21.5%, Menin MLL FP FL -0.2 and gsp antag -4.8%.
CCOC(=O)c1c(C)nc2sc(C(N)=O)c(N)c2c1-c1ccc(OC)cc1 was read as TRPML1 agonist -0.8, gsp ag 21.8%, TRPML1 inh -1.8, ClpP mod -1.7%, Menin MLL FP FL 0.1 and gsp antag 22.0%.
`CN(C)S(=O)(=O)c1cccc2nsnc12` gave TRPML1 agonist -0.3, gsp ag 4.5%, TRPML1 inh 5.3, ClpP mod -3.2%, Menin MLL FP FL 0.2 and gsp antag -1.7%.
`O=C1Nc2ccc(F)cc2C12Nc1ccccc1-c1nnc(SCc3ccccc3F)nc1O2` (configuration not stated) gave TRPML1 agonist 0.1, gsp ag -8.7%, TRPML1 inh -8.3, ClpP mod 39.9%, Menin MLL FP FL 4.9 and gsp antag -27.9%.
`CCOc1ccc(-c2ccc(/C=C3/C(=N)N4C=CSC4=NC3=O)o2)c([N+](=O)[O-])c1` gave TRPML1 agonist 1.9, gsp ag -30.2%[inhibitor], TRPML1 inh -3.0, ClpP mod -7.6%, Menin MLL FP FL -4.8 and gsp antag -16.9%.
`Cc1cccc(NC(=O)CSc2ncnc3c2oc2ccccc23)c1` gave TRPML1 agonist 1.4, gsp ag inconclusive, TRPML1 inh -13.0, ClpP mod 36.9%, Menin MLL FP FL 0.1 and gsp antag inconclusive.
Screening CC(C)c1ccccc1NC1=CC(=O)CC(C)(C)C1 returned TRPML1 agonist 0.9, gsp ag 6.6%, TRPML1 inh 3.5, ClpP mod -0.7%, Menin MLL FP FL 6.5 and gsp antag 18.4%.
COCCCn1c(SCC(=O)NCc2ccco2)nc2sc3c(c2c1=O)CCC3 was read as TRPML1 agonist 0.0, gsp ag 9.9%, TRPML1 inh -13.8, ClpP mod -1.1%, Menin MLL FP FL 4.2 and gsp antag -15.9%.
`COc1nc(N(C)C)nc(N(C#N)S(=O)(=O)c2ccc(C)cc2)n1` gave TRPML1 agonist 0.5, gsp ag inconclusive, TRPML1 inh -17.6, Menin MLL FP FL -4.0 and gsp antag 8.8%.
Screening COc1ccc(N2CCN(S(=O)(=O)CCNC(=O)COc3ccccc3OC)CC2)cc1 returned TRPML1 agonist -0.7, gsp ag -6.0%, TRPML1 inh -3.1, ClpP mod -0.4%, Menin MLL FP FL -1.9 and gsp antag -3.9%.
COc1ccc(S(=O)(=O)N(CC(=O)NCCC(C)C)c2ccccc2)cc1OC was read as TRPML1 agonist -0.5, gsp ag -0.2%, TRPML1 inh -1.2, Menin MLL FP FL -3.2 and gsp antag 11.6%.
`CC1CCN(C(=S)Nc2cccc(S(=O)(=O)N(C)C)c2)CC1` gave TRPML1 agonist 0.4, gsp ag 11.4%, TRPML1 inh -1.1, Menin MLL FP FL 1.3 and gsp antag -14.2%.

Hits appear at their usual frequency (roughly 2.1% active in at least one column).
